D2 PAM = potentiates the human D2 dopamine receptor allosterically | 360,000 compounds, 0.23% hits | DiscoveRx D2 beta-arrestin cells, luminescence, 90 min; 100% = 57 uM dopamine signal | potentiation, % (concentration not given with the values) | P14416 | AID 624464; active = potentiation of 50% or more; inconclusive = 30% to 50%; inactive = 30% or less;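 note: tested on top of an EC20 dose of dopamine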
Target sequence (P14416 whole entry, looked up): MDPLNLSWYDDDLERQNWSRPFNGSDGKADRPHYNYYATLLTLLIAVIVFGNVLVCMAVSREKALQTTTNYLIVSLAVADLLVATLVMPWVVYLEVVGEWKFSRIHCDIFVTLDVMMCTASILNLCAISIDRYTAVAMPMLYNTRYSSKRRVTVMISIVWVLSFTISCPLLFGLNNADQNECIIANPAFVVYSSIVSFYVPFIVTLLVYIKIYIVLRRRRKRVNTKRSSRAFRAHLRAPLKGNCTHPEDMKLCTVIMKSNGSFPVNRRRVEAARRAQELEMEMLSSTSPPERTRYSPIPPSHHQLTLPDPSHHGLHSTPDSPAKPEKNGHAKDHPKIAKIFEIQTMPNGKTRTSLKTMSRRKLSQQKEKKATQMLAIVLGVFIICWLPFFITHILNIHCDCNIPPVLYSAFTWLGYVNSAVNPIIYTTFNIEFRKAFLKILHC
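D2 cells co-treated with compound plus 50 nM dopamine (EC20) for 90 min at 37 deg C to detect potentiation. Beta-arrestin recruitment was read as enzyme-fragment luminescence after 1 h at ambient temperature. Full response was set by 57 uM dopamine.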
Sfp PPTase inh = blocks B. subtilis Sfp PPTase activity; Biochemical Sfp PPTase activity, qHTS; Potency, µM, inactives show max response, negative = inhibition, actives largely listed as inhibitors; 310,000 compounds, 3.5% hits; active = well fitted inhibition curve with a large enough effect; inconclusive = small, poorly fitted or top-dose-only effect, or another doubt; inactive = no such curve, though single readings can be large or run the other way;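 note: the enzyme is Sfp with the accession as filed and its product quenches rhodamine fluorescence; potency is the fitted concentration of half-maximal effect; 0% = enzyme reaction without inhibitor and -100% = no enzyme wells; top concentration of the series not given in the record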
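Reaction rates are the 30-min fluorescence difference (ex 525, em 598 nm) in wells containing 15 nM Sfp, 5 uM rhodamine-CoA and 12.5 uM BHQ-2-YbbR at pH 7.6 with 10 mM MgCl2.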
gsp agonist = gsp mutant agonism; gsp mutant cells, cAMP HTRF, 30 min; control for the full effect not named in the record; Potency, µM (highest dose often 76.9 µM), for inactives: at the highest dose activation (cAMP increase), most hits filed as activators; 340,000 compounds, 0.13% hits; active = well fitted activation curve with a large enough effect; inconclusive = small, poorly fitted or top-dose-only effect, or another doubt; inactive = no such curve, though single readings can be large or run the other way; cell line not stated here;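 note: phosphodiesterase inhibitor Ro 20-1724 added with compounds to block cAMP breakdown; potency is the fitted concentration of half-maximal effect; nearly all actives have a fitted effect of over 60% in size; about a fifth of the inactives were tested at one dose only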
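Cells in DMEM/10% FBS with G418 were pretreated with compounds in DMSO plus […] (300 uM stock) for 30 min at 37C. cAMP was measured by HTRF (cAMP-d2 plus anti-cAMP antibody-K) after 30 min at room temperature.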
TRPV1 potentiator = potentiators of human vanilloid receptor 1 (TRPV1); 320,000 compounds, 0.02% hits; Q8NER1; AID 540277; TRPV1-expressing cells, Fluo-8 calcium influx, capsaicin EC20 potentiation; host cell line not named in the record; control for the full effect not named in the record; potentiation, % at 8.33 µM; active means potentiation above 80%; inconclusive means 30% to 80%; inactive means below 30%; note: 0% is about no effect
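Cells expressing TRPV1 were dye-loaded with Fluo-8 and read kinetically: 10 s baseline, 3 min after compound (agonist portion), then 2 min after EC20 capsaicin (allosteric enhancer portion). Calcium-bound dye fluorescence at 480/520 nm.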
gsp antag = antagonizes gsp, the McCune-Albright syndrome mutation; gsp-mutant cells, cAMP HTRF, 30 min; control for the full effect not named in the record; AID 624288; 340,000 compounds, 0.4% hits; Potency, µM (series often up to 76.9 µM), inactives show at the highest dose activity change, negative = inhibition, usual class: inhibitors; active = falling curve of any shape with a large fitted effect; inconclusive = falling curve, mostly with a smaller effect; inactive = flat or rising curve; cell line not stated here;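 note: intracellular cAMP measured with PDE inhibitor Ro 20-1724 present during compound exposure; potency is the fitted concentration of half-maximal effect; % is set by controls: 0 for no effect and ±100 for the full control effect; nearly all actives have a fitted effect of over 65% in size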
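Cells, 2000/well, grown 16–24 h in DMEM 10% FBS with 0.5 mg/ml G418, then compounds plus […] (300 uM addition stock), 30 min at 37C. cAMP read by HTRF (cAMP-d2 and anti-cAMP antibody-K in lysis buffer) after 30 min RT.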
ClpP mod = qHTS Assay for Activators of ClpP; purified B. subtilis ClpP, FRET peptide cleavage, 20 min; ATP-dependent Clp protease proteolytic subunit (Bacillus subtilis (strain 168)), P80244; AID 651965, 2013; 340,000 compounds, 1.9% hits; Potency, µM (titrated, usually from 57.5 µM), without a hit: at the top dose activity change, negative = active; active = well fitted falling curve with a large enough effect; inconclusive = small, poorly fitted or top-dose-only effect; inactive = no such curve, though single readings can be large or run the other way; note: potency is the fitted concentration of half-maximal effect; the source files actives as falling curves though it sought activators and does not explain the sign; nearly all actives have a fitted effect of over 65% in size; many hits overshoot -100%
Target sequence (P80244 whole entry, looked up): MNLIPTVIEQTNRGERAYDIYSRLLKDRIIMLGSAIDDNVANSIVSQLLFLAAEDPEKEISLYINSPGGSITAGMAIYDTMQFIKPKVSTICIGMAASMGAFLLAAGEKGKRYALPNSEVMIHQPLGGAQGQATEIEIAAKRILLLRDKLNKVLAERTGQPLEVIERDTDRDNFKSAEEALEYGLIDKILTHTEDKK
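ClpP 10 microg/mL final, pH 8 Tris/KCl buffer with BSA, glycerol, Tween-20; compound pinned in; FRET-FV substrate; RT 20 min; Ex320/Em430; ΔFRET vs ADEP 5.8 microM, DMSO, no enzyme.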
Menin MLL FP FL = menin-MLL binding inhibition, fluorescein peptide | Fluorescence polarization, fluorescein-MLL peptide displacement from menin | 290,000 tested, under 10 active | FP activity change, % at 61.4 µM; inconclusive = falling polarisation curve, or a change in total fluorescence; inactive = total fluorescence flat and polarisation flat or rising; no compound was filed as active; the % refers to the polarisation; negative = inhibition;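 note: % of control where 0% means no effect; inhibitors lower the polarisation; unlabelled MLL peptide was the positive control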
Active calls of the source: *; u = inconclusive; x = no result given; [ ] = dose if it differs, or a comment.

SMILES | D2 PAM | Sfp PPTase inh | gsp agonist | TRPV1 potentiator | gsp antag | ClpP mod | Menin MLL FP FL
CC(C)(C)c1[nH]nc2c1C(c1ccco1)C(C#N)=C(N)O2 (stereo not given) | -4 | 14% | -10%[15.4 µM] | 1 | 5% | x | 2.3
Cc1ccnc(NC(=O)COC(=O)C23CC4CC(CC(C4)C2)C3)n1 | -6 | -4% | -24% | -33 | 5% | -4.2% | 3.3
CCn1c(SCC(=O)NC2CCCCC2)nnc1-c1cc2cccc(OC)c2o1 | -14 | -3% | -12% | 6 | -16% | -13% | 6.9
COc1ccc(CNC(=O)c2ccc(N3CCC4(CC3)CC(c3ccc(Cl)cc3)=NO4)c(NC(=O)Cc3ccc(F)cc3)c2)cc1 | -2 | x | -17% | x | 3% | -10% | x
Cc1c2c(n3c(nc4ccccc43)c1C#N)N(c1ccccc1)CC2 | x | -10% | x | -5 | x | x | u
COc1ccc(OC)c(NC(=O)CSc2nncc3ccc(OC)c(OC)c23)c1 | -7 | u | 0%[15.4 µM] | 11 | -21% | 1.6% | u
CCCCCOC(=O)c1ccc(NC(=O)c2ccco2)cc1 | -5 | -11% | 3% | -14 | u | -1.2% | -4.1
Cc1nc(Cl)c(C(=O)NCCc2ccccc2)c(C)c1[N+](=O)[O-] | -3 | -6% | 3% | -20 | 8% | -0.1% | -2.6
O=C(NC1CCCc2c1cnn2-c1ccccc1F)c1ccccn1 (stereo not given) | 1 | 11% | -8% | -2 | -20% | -3.3% | 1.6
C=C(c1cccc2ccccc12)P(=O)(O)O | 8 | 1% | 6% | -2 | -4% | -3.9% | -1.4

Next section, overlapping the part above by three compounds.
SMILES | D2 PAM | Sfp PPTase inh | gsp agonist | TRPV1 potentiator | gsp antag | ClpP mod | Menin MLL FP FL
Cc1nc(Cl)c(C(=O)NCCc2ccccc2)c(C)c1[N+](=O)[O-] | -3 | -6% | 3% | -20 | 8% | -0.1% | -2.6
O=C(NC1CCCc2c1cnn2-c1ccccc1F)c1ccccn1 (stereo not given) | 1 | 11% | -8% | -2 | -20% | -3.3% | 1.6
C=C(c1cccc2ccccc12)P(=O)(O)O | 8 | 1% | 6% | -2 | -4% | -3.9% | -1.4
COc1cccc(NC(=S)N(CCCN2CCCC2)Cc2cccn2Cc2ccc(Cl)cc2)c1 | -17 | 7% | -10%[15.4 µM] | -4 | -6% | x | 0.1
Cc1cc(N2CCOCC2)nc(SCC(=O)OCc2ccccc2)n1 | -9 | 7% | 5%[15.4 µM] | 20 | 4% | u | -1.0
CCc1ccc(C(C)NC(=O)C2CCCO2)cc1 (stereo not given) | -8 | 4% | 7% | 0 | 7% | x | 3.9
N#CCCn1cc(C(=O)Nc2cccc(C(=O)O)c2)c(-c2ccc(Cl)cc2)n1 | -3 | 20% | 5% | 8 | -3% | 0.4% | -1.1
COC(=O)c1c(-c2ccc(C)cc2)csc1NC(=O)Cc1ccc(OC)c(OC)c1 | 18 | u | 24% | 5 | -24% | -4.9% | 8.4
Cc1cc2oc(=O)c3c(c2cc1OCc1nn[nH]n1)CCCC3 | -10 | 21% | 24% | -8 | -10% | 25µM* | 7.3
COC(=O)c1cccc(Cn2c(Cl)c(/C=N/NC(=O)c3ccco3)sc2=O)c1 | -8 | 6% | -30% | 7 | -11% | -17% | x
Cc1cc(S(=O)(=O)Nc2ccc(C(=O)NCC(C)(C)N3CCOCC3)cc2)ccc1F | -27 | 12% | -2% | -14 | 2% | -0.9% | x
Cc1c(Br)c([N+](=O)[O-])nn1CC(=O)Nc1ccc(Cc2ccncc2)cc1 | -3 | u | -83% | -6 | -18% | -0.8% | -1.2
COc1cccc(CC(=O)N2CCN(c3ccccc3[N+](=O)[O-])CC2)c1 | -5 | 2% | -36%[inhibitor] | -11 | 7% | x | -22
Cc1ccc(C(=O)OCCc2c(C)[nH]n(-c3ccccc3)c2=O)cc1 | -4 | 28% | -34%[inhibitor] | 0 | 7% | -1.9% | 3.2
CN1CCN(S(=O)(=O)c2cccc(C(=O)NC3CCCc4ccccc43)c2)CC1 (stereo not given) | 9 | 2% | -13% | -18 | -1% | 0.6% | 2.3
Cc1ccc(NC(=O)CN2CCc3ccccc3C2)cc1 | 4 | 6% | -26% | -5 | 3% | -2.2% | 0.3
C=CCN1C(=O)CN=C1Nc1cc(C)ccc1C | 2 | -11% | 2% | 1 | 1% | 0.4% | 1.4
Cc1cccc(NC(=O)CSc2nnc(CNC(=O)c3ccc(S(=O)(=O)N(C)C)cc3)n2-c2ccccc2)c1 | 13 | 5% | -8%[15.4 µM] | 0 | -2% | 1.3% | -0.5
CNC(=O)/C(C#N)=C/c1c(N2CCN(C)CC2)nc2c(C)cccn2c1=O | -7 | 19% | u | 11 | 3% | 3.7% | -0.2
COCC[N+]1(C)CCCCC1 | -6 | 5% | 15% | 0 | 3% | x | -4.0
Cc1ccc(S(=O)(=O)Nc2cc(C)cn(Cc3ccc(F)cc3)c2=O)cc1 | 1 | 15% | -10% | -2 | -13% | x | u
O=C(NCCCN1CCOCC1)c1ccccc1NS(=O)(=O)c1cc([N+](=O)[O-])ccc1Cl | 12 | 14% | 1%[15.4 µM] | -1 | -6% | x | 1.1
O=C1CCC/C=C\C[C@@H](CC(=O)N(CCO)Cc2ccccc2)C(=O)NCCO1 | -9 | x | x | x | 5% | -1.7% | x
Cc1ccccc1CN(C)C(C)C(=O)Nc1ccccc1F (stereo not given) | -18 | -15% | 23% | -12 | -2% | 0.5% | 0.2
CCOC(=O)C1CN(Cc2ccccc2)C(=O)C1=O (stereo not given) | 0 | x | 12%[15.4 µM] | x | -13% | -1.9% | x
C[C@@H]1CN([C@H](C)CO)S(=O)(=O)c2ccc(Br)cc2O[C@H]1CN(C)C(=O)Nc1cccc(F)c1 | 0 | x | u | x | x | -2.0% | x
Cc1[nH]cnc1C(=O)N/N=C/c1c(Cl)cccc1Cl | 1 | 3% | -17% | -24 | -1% | x | -4.4
O=C(/C=C/c1ccc(Cl)cc1)N(Cc1ccccc1)C1CCS(=O)(=O)C1 (stereo not given) | 11 | -20% | -4% | -11 | -5% | -1.1% | 2.6
O=C1CC(C(F)(F)C(F)(F)C(F)(F)C(F)(F)F)=Nc2ccccc2N1 | -14 | 20% | 14% | 11 | 1% | 1.1% | -0.6
Cc1cccc(NS(=O)(=O)c2ccc(C)c(C(=O)NCc3ccccn3)c2)c1 | -18 | x | 38%[15.4 µM] | -2 | -2% | x | x
Cc1ccc(C(=O)CSC2=NC(N)=C(C#N)C3(CCCCC3)C2C(N)=O)cc1 (stereo not given) | -3 | 45µM* | 12% | 7 | 4% | -0.1% | 3.3
CC(CN1CCN(C)CC1)OC(=O)c1ccc(Cl)cc1 (stereo not given) | -13 | 13% | -11%[15.4 µM] | 0 | 12% | 1.3% | 1.7
C/C(=N\NC(=O)CN(c1ccccc1Br)S(C)(=O)=O)c1ccc2c(c1)OCCO2 | -5 | 17% | 20% | 1 | 1% | 0.4% | 2.1
Cc1oncc1-c1csc(-c2ccccc2Cl)n1 | -10 | -12% | -43%[inhibitor] | -2 | 0% | -11% | 0.1
CC(C)C(NC(=O)C(c1ccccc1)c1ccccc1)c1nc2ccccc2[nH]1 (stereo not given) | -10 | 10% | 2% | -11 | -11% | 0.4% | 5.8
CNC(=O)COC(=O)c1c2c(nc3ccccc13)CCC2 | 3 | -3% | 27% | x | 2% | -28% | -0.9
O=c1[nH]c(=S)n(C2CCCCC2)c(O)c1C=NCCN1CCOCC1 | -19 | -17% | -35% | -29 | 6% | -1.6% | 13
Cc1nc2c3cnn(-c4ccc(C)c(C)c4)c3ncn2n1 | 1 | 11% | 6% | -3 | 2% | -8.0% | 2.3
N=C(N)N1CCN(Cc2ccccc2)CC1 | x | 8% | x | 3 | x | x | 0.4
COc1ccc(OCCNC(=O)/C=C/c2ccccc2)cc1 | -14 | 9% | 8%[15.4 µM] | -40 | -2% | x | -2.6
Cc1c(C(=O)NCCSCc2ccccc2)cccc1[N+](=O)[O-] | -25 | -2% | u | -7 | 0% | -2.1% | 1.5
CC1CCCC(NC(=O)CC2Nc3ccccc3NC2=O)C1C (stereo not given) | -5 | 8% | 3% | 2 | 12% | -22% | 2.5
N#Cc1c(-c2ccccc2)nc(SCc2ccc([N+](=O)[O-])cc2)[nH]c1=O | -7 | 20% | -10%[15.4 µM] | u | 0% | -4.6% | -2.1
COC(=O)[C@@H]1CCCN1C(=O)CCc1nnc(CCC2CCCCC2)o1 | 2 | 19% | -24% | -6 | 1% | x | -3.1
COc1ccc(NC(=S)NC(=O)c2ccccc2Cl)cc1 | -5 | -13% | -8% | -23 | -23% | 1.3% | 0.6
C/C(=N\NC(=O)Cc1cc(=O)[nH][nH]1)c1cccc([N+](=O)[O-])c1 | -7 | -2% | -14% | 2 | 8% | -0.9% | 6.5
CCC(=O)N1CCc2cc(OC)c(OC)cc2C1COc1ccc(C(=O)OC)cc1 (stereo not given) | -2 | 7% | 40% | 6 | 12% | -2.3% | -1.4
O=C(Nc1nc2ccc(F)cc2s1)C1CCCO1 (stereo not given) | -2 | 13% | -13% | -4 | -1% | -1.3% | -1.8
O=C(Cn1nc(C(=O)O)c2ccccc2c1=O)Nc1cccc(S(=O)(=O)N2CCOCC2)c1 | -2 | x | 25% | -1 | 1% | -2.4% | x
Cc1ccc(C(=O)NCC(=O)OCCCOC(=O)CNC(=O)c2ccc(C)cc2)cc1 | -23 | x | 15%[15.4 µM] | -7 | 6% | x | x
CCOCCCN(C)C1CCN(C(=O)c2oc3ccccc3c2NC(=O)Cc2ccc(F)cc2)CC1 | -36 | 10% | 24% | 9 | 14% | -8.1% | 6.3
Cc1ccc(S(=O)(=O)N(C)CC(=O)NNC(=O)Cc2ccccc2F)cc1 | 0 | x | -34%[inhibitor] | x | 13% | 0.7% | x
CCOC(=O)c1cnc(SCC(=O)Nc2cc(OC)cc(OC)c2)nc1N | -3 | 22% | 0% | 10 | u | 12% | 1.4

Screening results as filed in PubChem.
